Assay outcomes from PubChem.
Menin MLL FP FL – qHTS Assay for Inhibitors Targeting the Menin-MLL Interaction in MLL Related Leukemias: Competition With Fluorescein Labeled MLL-derived Peptide; Fluorescence polarization, fluorescein-MLL peptide displacement from menin; 290,000 tested, under 10 active; FP activity change, % at 61.4 µM; AID 1766, 2009; inconclusive = falling polarisation curve, or a change in total fluorescence; inactive = total fluorescence flat and polarisation flat or rising; no compound was filed as active; the % refers to the polarisation; negative = inhibition;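 note: % of control where 0% means no effect; inhibitors lower the polarisation; unlabelled MLL peptide was the positive control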
TRPV1 PAM – HTS Assay for Compounds that Act as Potentiators of the Vanilloid Receptor 1. TRPV1-expressing cells, Fluo-8 calcium influx, capsaicin EC20 potentiation; host cell line not named in the record; control for the full effect not named in the record. potentiation, % at 8.33 µM. 0.02% of 320,000 active. AID 540277, 2011; active means potentiation above 80%; inconclusive means 30% to 80%; inactive means below 30%; note: 0% is about no effect
Target sequence (Q8NER1 whole entry, looked up): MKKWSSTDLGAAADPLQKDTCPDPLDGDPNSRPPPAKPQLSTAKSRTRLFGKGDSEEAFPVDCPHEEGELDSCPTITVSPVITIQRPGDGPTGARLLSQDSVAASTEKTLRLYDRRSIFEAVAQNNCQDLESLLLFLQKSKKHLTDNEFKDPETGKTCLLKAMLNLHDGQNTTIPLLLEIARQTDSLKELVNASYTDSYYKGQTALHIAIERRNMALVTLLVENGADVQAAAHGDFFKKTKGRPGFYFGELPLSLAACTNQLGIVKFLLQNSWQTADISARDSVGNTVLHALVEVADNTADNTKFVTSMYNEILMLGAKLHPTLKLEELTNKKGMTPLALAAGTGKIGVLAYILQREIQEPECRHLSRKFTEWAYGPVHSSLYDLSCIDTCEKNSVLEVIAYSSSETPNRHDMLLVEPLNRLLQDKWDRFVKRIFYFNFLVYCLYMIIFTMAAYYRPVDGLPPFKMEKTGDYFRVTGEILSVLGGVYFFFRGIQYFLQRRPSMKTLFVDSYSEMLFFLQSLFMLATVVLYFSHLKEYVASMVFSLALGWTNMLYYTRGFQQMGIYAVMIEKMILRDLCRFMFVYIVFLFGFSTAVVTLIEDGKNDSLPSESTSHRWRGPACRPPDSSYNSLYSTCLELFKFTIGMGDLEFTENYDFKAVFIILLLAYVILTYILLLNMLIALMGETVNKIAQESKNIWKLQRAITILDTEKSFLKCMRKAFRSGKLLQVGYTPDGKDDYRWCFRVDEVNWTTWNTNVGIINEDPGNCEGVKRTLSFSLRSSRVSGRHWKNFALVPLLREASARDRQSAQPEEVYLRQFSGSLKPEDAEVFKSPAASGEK
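Fluo-8 calcium influx in TRPV1-expressing cells, kinetic read (ex 480/em 520 nm). Compound added and read 3 min for agonist activity, followed by capsaicin at EC20 final and 2 min further read for enhancement.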
ClpP mod – qHTS Assay for Activators of ClpP. purified B. subtilis ClpP, FRET peptide cleavage, 20 min. Potency, µM (series often up to 57.5 µM), inactives show at the top dose activity change, negative = active. 1.9% of 340,000 active; active = well fitted falling curve with a large enough effect; inconclusive = small, poorly fitted or top-dose-only effect; inactive = no such curve, though single readings can be large or run the other way; note: potency is the fitted concentration of half-maximal effect; the source files actives as falling curves though it sought activators and does not explain the sign; nearly all actives have a fitted effect of over 65% in size; many hits overshoot -100%
Target sequence (P80244 whole entry, looked up): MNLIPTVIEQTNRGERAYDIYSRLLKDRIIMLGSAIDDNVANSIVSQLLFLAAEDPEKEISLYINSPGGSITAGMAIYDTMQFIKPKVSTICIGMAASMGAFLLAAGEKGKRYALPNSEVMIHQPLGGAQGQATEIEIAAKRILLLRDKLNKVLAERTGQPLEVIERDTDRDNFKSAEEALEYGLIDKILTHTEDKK
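FRET quenching reversal measured ClpP activation: 10 microg/mL B. subtilis ClpP at pH 8 with the FRET-FV decapeptide, read at 430 nm after 320 nm excitation. The 20-min minus 0-min signal was scaled between DMSO/no-enzyme wells and ADEP (5.8 microM final).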
gsp agonist – qHTS for Agonist of gsp, the Etiologic Mutation Responsible for Fibrous Dysplasia/McCune-Albright Syndrome: qHTS. gsp mutant cells, cAMP HTRF, 30 min; control for the full effect not named in the record. Potency, µM (highest dose often 76.9 µM), without a hit: top-dose activation (cAMP increase), most hits filed as activators. 0.13% of 340,000 active; active = well fitted activation curve with a large enough effect; inconclusive = small, poorly fitted or top-dose-only effect, or another doubt; inactive = no such curve, though single readings can be large or run the other way; cell line not stated here;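 note: phosphodiesterase inhibitor Ro 20-1724 added with compounds to block cAMP breakdown; potency is the fitted concentration of half-maximal effect; nearly all actives have a fitted effect of over 60% in size; about a fifth of the inactives were tested at one dose only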
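Cells in DMEM/10% FBS with G418 were pretreated with compounds in DMSO plus […] (300 uM stock) for 30 min at 37C. cAMP was measured by HTRF (cAMP-d2 plus anti-cAMP antibody-K) after 30 min at room temperature.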
Sfp PPTase inh – qHTS Assay for Inhibitors of Bacillus subtilis Sfp phosphopantetheinyl transferase (PPTase); 4'-phosphopantetheinyl transferase ffp (Bacillus subtilis), Q9F4F7; AID 1490, 2009; Potency, µM, inactives show max response, negative = inhibition, hits mostly inhibitors; Biochemical Sfp PPTase activity, qHTS; 3.5% of 310,000 active; active = well fitted inhibition curve with a large enough effect; inconclusive = small, poorly fitted or top-dose-only effect, or another doubt; inactive = no such curve, though single readings can be large or run the other way;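 note: the enzyme is Sfp with the accession as filed and its product quenches rhodamine fluorescence; potency is the fitted concentration of half-maximal effect; 0% = enzyme reaction without inhibitor and -100% = no enzyme wells; top concentration of the series not given in the record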
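Fluorescence-quenching assay with 15 nM Sfp, 5 uM rhodamine-CoA and 12.5 uM BHQ-2-labelled ybbR peptide in pH 7.6 Hepes/MgCl2 buffer. Enzyme was pre-incubated with compound for 15 min at room temperature. Rate was taken from the 30-min fluorescence change (525/598 nm).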
gsp antag – qHTS for Antagonists of gsp, the Etiologic Mutation Responsible for Fibrous Dysplasia/McCune-Albright Syndrome: qHTS; gsp-mutant cells, cAMP HTRF, 30 min; control for the full effect not named in the record; Potency, µM (top dose mostly 76.9 µM), without a hit: at the top dose activity change, negative = inhibition, actives largely listed as inhibitors; 0.4% of 340,000 active; active = falling curve of any shape with a large fitted effect; inconclusive = falling curve, mostly with a smaller effect; inactive = flat or rising curve; cell line not stated here;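 note: intracellular cAMP measured with PDE inhibitor Ro 20-1724 present during compound exposure; potency is the fitted concentration of half-maximal effect; % is set by controls: 0 for no effect and ±100 for the full control effect; nearly all actives have a fitted effect of over 65% in size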
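Cells, 2000/well, grown 16–24 h in DMEM 10% FBS with 0.5 mg/ml G418, then compounds plus […] (300 uM addition stock), 30 min at 37C. cAMP read by HTRF (cAMP-d2 and anti-cAMP antibody-K in lysis buffer) after 30 min RT.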
CtBP-E1A blk – qHTS Assay for Inhibitors of the CtBP/E1A Interaction; AlphaScreen GST-E1A/His-CtBP binding, 1536-well; stronger effect = lower value; control for the full effect not named in the record; activity change, % (test concentration not listed); 0.49% of 340,000 active; in the data active means activity change below about -65%; inconclusive means about -30% to -65%; inactive means above about -30%; note: % is set by controls: 0 for no effect and ±100 for the full control effect; compound concentration not given in the record
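AlphaScreen with 125 nM GST-E1A and 125 nM His-CtBP (5X stocks) in Tris pH 8.0, 300 mM NaCl, BSA, Tween 20, TCEP. Compounds preincubated 2 h at 37 deg C, then glutathione donor/nickel acceptor beads added for 1 h at 37 deg C in dark.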
Numbers without * were called inactive; ? = inconclusive; nt = no result given; & = joins results of further samples; [ ] = dose if it differs, or a comment.

SMILES	Menin MLL FP FL	TRPV1 PAM	ClpP mod	gsp agonist	Sfp PPTase inh	gsp antag	CtBP-E1A blk
O=C(CS(=O)(=O)Cc1ccccc1)Nc1nnc(C2CCCCC2)s1	0.5	10	1.5%	-1%	-7%	-13%	16
O=C(Nc1ccccc1)c1ccc[n+](Cc2ccc([N+](=O)[O-])cc2)c1	6.9	21	-1.3%	14%	-4%	1%	-15
CC(C)(CNC(=O)c1ccc(S(=O)(=O)Nc2ccccc2F)cc1)N1CCOCC1	nt	-26	-10%	-1%	nt	-2%	-14
CC(C)CN(C(=O)CSc1nnnn1-c1ccccc1)c1c(N)n(CC(C)C)c(=O)[nH]c1=O	-10	-18	nt	-10%	6%	5%	4
CN1CCN(C(=O)c2cc(Cl)cc(Cl)c2)CC1	1.9	-9	nt	?	11%	13%	0
CCN(CC)C(=O)Oc1ccc2oc(=O)cc(-c3cc4cccc(OC)c4o3)c2c1	-4.5	7	-25%	?	-1%	-13%	-1
Cc1occc1-c1nnc(SCC(N)=O)o1	-1.0	-7	nt	-3%	-4%	8%	-1
CSc1ncccc1C(=O)OCC(=O)N(C)C	-4.5	2	nt	-12%[15.4 µM]	34%[activator]	8%	-8
CCC(C)(O)C(=O)N[C@H]1CCCN1C(=O)/C=C/c1ccccc1 (stereo partly drawn)	nt	nt	1.6%	nt	nt	-2%	2
COc1ccccc1C(=O)N/N=C1/NC(=O)CC(C(=O)Nc2ccccc2)S1 (stereo not drawn)	0.7	?	0.0%	0%[15.4 µM]	14%	5%	-3
COc1ccc(C)cc1NC(=O)C1CCN(C(=O)Cc2ccccc2)CC1	-2.0	-12	nt	20%[15.4 µM]	14%	5%	-15
CC(=O)NC1C(=O)N=C(SCC(=O)Nc2sc3c(c2C#N)CCCCCC3)NC1=O (stereo not drawn)	6.6	24	0.2%	19%	-5%	0%	nt
COC(=O)[C@H]1C[C@@H]1[C@H](NC(=O)c1cc(C)on1)c1ccccc1	-1.8&3.6	-9	-1.2%	nt	0%&4%	4%	6
CC1CC1C(=O)OCC(=O)NCc1ccc(Cl)cc1Cl (stereo not drawn)	0.3	-6	-1.9%	-34%[inhibitor]	4%	7%	3
CCOC(=O)CC(=O)CSc1nc2c(sc(=S)n2-c2ccc(C)c(C)c2)c(=O)[nH]1	6.9	18	nt	20%	-6%	-24%	-15
Cn1cnnc1SCc1ccc(F)c2ccccc12	0.8	10	0.5%	-26%	-1%	-1%	4
Cc1cc(=O)[nH]c2c1c(C)nn2C1CCCC1	0.1	-5	-7.8%	-10%	14%	-4%	11
COc1ccc(NC(=O)/C(=C\c2ccc(OS(=O)(=O)c3ccc(C)cc3)cc2)NC(=O)c2ccccc2)cc1	2.1	-5	-0.4%	-6%	-11%	3%	6
CN1CCc2nc(NC(=O)c3cccc(S(=O)(=O)N4CCc5ccccc54)c3)sc2C1	12	?	-0.7%	13%	?	15%	-6
O=C1C=C(NCCc2ccccc2)C2(CCCCC2)O1	4.5	-4	nt	-9%[15.4 µM]	8%	nt	7
CCN(CC(=O)Nc1ccc(NC(C)=O)cc1)C(=O)c1ccc(N2CCC(C)CC2)c([N+](=O)[O-])c1	nt	-2	-1.1%	-8%	nt	-12%	-19
O=S(=O)(c1ccc(S(=O)(=O)N(Cc2ccco2)Cc2ccccc2Cl)cc1)N1CCCC1	-0.7	8	-1.1%	?	?	0%	4
COC(=O)c1ccc(OCCCCN(C)Cc2ccccc2)cc1	-0.6	-1	1.2%	13%	-27%	8%	15
Cc1ccc(/C=C2\SC(N3CCCC3)=NC2=O)cc1	-3.5	2	nt	nt	14%	nt	nt
CCOC(=O)c1ccc(NC(=O)Cc2coc3cc4c(cc23)CCC4)cc1	10	-21	-10%	?	-3%	-23%	-6
SMILES	Menin MLL FP FL	TRPV1 PAM	ClpP mod	gsp agonist	Sfp PPTase inh	gsp antag	CtBP-E1A blk
Cc1ccccc1OCCNc1cc(N2CCCCC2)ccc1[N+](=O)[O-]	5.1	-1	-1.6%	15%	7%	-2%	?
COc1ccc(C)cc1S(=O)(=O)NCCc1ccccc1	0.7	-32	0.1%	12%	1%	-9%	9
NC1=NC(=O)CC(C(=O)NCc2ccccc2)S1 (stereo not drawn)	0.1	8	1.0%	-13%	14%	10%	1
CCN1CCN(Cc2ccc(NC(=O)c3ccc(C)c(NC(=O)C4=NN(c5ccccc5)C(=O)C4)c3)cc2C(F)(F)F)CC1	-0.7	?	-6.2%&-6.0%	-63%&3%[inhibitor]	0%	10%	-12
Cc1cc(OC(=O)c2c(Cl)cc(Cl)cc2Cl)nc(C)n1	0.3	5	0.5%	0%	-4%	2%	-21
COc1cccc(NC(=O)CCC2CCN(C(=O)c3ccc(C(C)=O)s3)CC2)c1	nt	16	-3.5%	16%	11%	2%	nt
Cc1cccc(OCC(=O)OCC(=O)Nc2sccc2C(N)=O)c1	nt	nt	nt	11%[15.4 µM]	nt	-13%	1
CCOc1ccc(N=NC2C(=O)N(C(N)=S)N=C2C)cc1 (stereo not drawn)	11	-10	-1.5%	-20%	18%	-1%	nt
Cc1c(C)c2c(OCC(=O)NCc3ccco3)cc3c(c2oc1=O)CCC(C)(C)O3	-8.2	-30	5.2%	nt	14%	-3%	1
c1ccc2[nH]c(C3CC3)nc2c1	-2.3	-4	nt	-28%	10%	-8%	-4
O=c1[nH]c2ccc(Cl)cc2c(-c2ccccc2)c1N1CCN(c2ccccn2)CC1	3.3	2	-5.1%	?	-1%	-7%	-6
Cc1[nH]nc(C(=O)NN=Cc2ccccc2Cl)c1N=NN(C)C	nt	nt	-1.2%	-34%	nt	23%	6
CCOc1cc(C)nc(N2CCC(C(=O)NCC3CCCO3)CC2)n1 (stereo not drawn)	nt	nt	nt	-2%[15.4 µM]	nt	-2%	-4
COc1ccc(NC(=O)c2cccc(OS(=O)(=O)N(C)C)c2)cc1	1.7	-1	nt	-10%	-9%	-2%	3
CCOc1ccccc1NC(=O)COc1coc(CN2CCc3ccccc3C2)cc1=O	nt	11	?	1%[15.4 µM]	nt	-8%	1
O=C(CS(=O)(=O)c1ccccc1)c1cc2cc(F)ccc2oc1=O	nt	25	-11%	-17%	0%	2%	nt
CCOc1ccc(N2CC(C(=O)N3CCCCCC3)CC2=O)cc1 (stereo not drawn)	1.4	-1	nt	-5%	11%	4%	-5
O=C(Nc1ccc2nc(-c3ccco3)c(-c3ccco3)nc2c1)N1CCCCCC1	?	7	-4.0%	-4%	14µM*	-19%	-8
COC(=O)c1cc(Cl)cc(Cl)c1OS(=O)(=O)N(C)C	-4.4	-20	nt	-21%	10%	-1%	11
Cn1c(SCC(=O)NC2CCCCCC2)nnc1-c1ccco1	0.1	-1	1.2%	8%	14%	1%	-2
CCN1CCN(c2ccc(NC(=O)c3ccco3)cc2)CC1	nt	1	-0.7%	24%	21%	-2%	0
CCN1CCCC1CNC(=O)C1c2cc(OC)c(OC)cc2C(=O)N(C)C1c1cccnc1 (stereo not drawn)	1.5	1	-9.9%	5%	15%	-4%	5
CC(/C=C/c1ccc(O)cc1)=NNc1ccccc1	nt	nt	nt	20%	nt	0%	-21
CC(C)Oc1cccc(C(=O)C2CCCN(S(C)(=O)=O)C2)c1 (stereo not drawn)	2.9	-10	0.7%	6%[15.4 µM]	-7%	-16%	7
Cc1cc2c(cc1C)C(=O)CCC2	nt	nt	-3.7%	37%	nt	nt	-4
SMILES	Menin MLL FP FL	TRPV1 PAM	ClpP mod	gsp agonist	Sfp PPTase inh	gsp antag	CtBP-E1A blk
COc1cccc(-c2ccc(NC(=O)C3CCCN(Cc4cccc(C)n4)C3)cc2)c1 (stereo not drawn)	nt	nt	0.2%	-9%	nt	nt	-7
c1ccc(Nc2nc(CSc3ncn[nH]3)cs2)cc1	5.3	7	-5.3%	10%[15.4 µM]	-39%	7%	13
O=C1N[C@@H](c2ccccc2)COC(=O)[C@@H](Cc2ccc(F)cc2)C/C=C\C[C@H]1CC(=O)N(CCO)Cc1ccccc1	nt	nt	-4.4%	-10%	nt	?	-23
CN(C)c1ccc(C(CNS(=O)(=O)c2ccc(F)c(F)c2)c2c[nH]c3ccccc23)cc1 (stereo not drawn)	4.0	6	0.0%	27%	4%	-22%	0
COc1ccc2c(c1)c(C(O)CN1CCC3(CC1)OCCO3)c(C)n2C (stereo not drawn)	-5.8	-14	nt	nt	-1%	nt	nt
COc1ccc(CNC(=O)CCCOc2cc(=O)n(C)c3ccccc23)cc1	-1.9	4	-2.9%	?	7%	2%	-1
CCn1c(CNC(=O)Cc2ccc(OC)cc2)nnc1SCC(=O)NC1CCCCC1	-0.3	-11	1.6%	24%	12%	-1%	4
OCCN1CCN(c2ncnc3sc(-c4ccccc4)cc23)CC1	-1.9	-5	nt	16%[15.4 µM]	16%	-10%	nt
C=CCOc1ccccc1C(=O)/C=C1/C(=O)Nc2ccccc21	0.0	1	-1.8%	35%	79µM*	6%	2
O=C(/C=C/c1cccc([N+](=O)[O-])c1)NCCSCc1ccc(Cl)cc1Cl	3.2	-15	nt	0%	12%	-36%	2
COC(=O)c1ccccc1S(=O)(=O)N1CCC(C(=O)OCc2ccc([N+](=O)[O-])cc2)CC1	nt	-12	1.4%	-2%[15.4 µM]	nt	-20%	-7
CC(=O)c1c(C(C)=O)c(C)n(-c2ccc(C)c(NC(=O)c3ccccc3Cl)c2)c1C	5.6	-3	-1.6%	9%	4%	?	-21
Cc1c(C(=O)OCC2CCCO2)[nH]c2c1C(=O)CC(c1ccco1)C2 (stereo not drawn)	5.3	-32	-1.4%	12%	16µM*	-4%	4
